Source: PubChem
RecA splice inh: Mtb RecA intein splicing inhibitors, primary screen, biochemical, fluorescence, HTS; cell-free RecA intein splicing; inhibition, %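 (about 9 µM by stock and volumes)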; 290,000 compounds, 0.75% hits; in the data active = inhibition above about 30%; inconclusive = no clear call, values can overlap the other calls;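 note: 0% = vehicle wells and 100% = reference inhibitor control wells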
Target sequence (P9WHJ3 whole entry, looked up, canonical isoform): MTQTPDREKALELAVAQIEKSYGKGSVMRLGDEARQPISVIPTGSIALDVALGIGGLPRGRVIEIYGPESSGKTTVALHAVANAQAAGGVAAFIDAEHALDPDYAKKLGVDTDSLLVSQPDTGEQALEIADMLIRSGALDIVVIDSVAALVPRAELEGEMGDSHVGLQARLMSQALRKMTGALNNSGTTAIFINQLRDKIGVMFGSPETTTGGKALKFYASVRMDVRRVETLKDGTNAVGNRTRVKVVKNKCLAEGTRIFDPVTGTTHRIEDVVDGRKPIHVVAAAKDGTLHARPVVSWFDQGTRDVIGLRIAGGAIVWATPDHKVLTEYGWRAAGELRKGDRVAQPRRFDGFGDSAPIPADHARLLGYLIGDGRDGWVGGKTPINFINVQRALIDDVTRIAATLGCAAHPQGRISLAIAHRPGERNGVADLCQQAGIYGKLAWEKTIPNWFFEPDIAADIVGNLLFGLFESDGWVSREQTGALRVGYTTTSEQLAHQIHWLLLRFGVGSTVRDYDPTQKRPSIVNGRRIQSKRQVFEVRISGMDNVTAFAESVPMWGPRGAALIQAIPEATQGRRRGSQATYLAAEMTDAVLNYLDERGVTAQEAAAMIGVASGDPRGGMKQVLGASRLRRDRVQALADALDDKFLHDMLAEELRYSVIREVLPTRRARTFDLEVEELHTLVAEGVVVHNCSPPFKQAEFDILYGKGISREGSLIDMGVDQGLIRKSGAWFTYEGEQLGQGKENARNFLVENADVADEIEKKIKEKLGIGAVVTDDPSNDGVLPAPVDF
Arbovirus anti: antivirals against arbovirus infection, primary screen, cell-based, full library, 10K replicate subset. arbovirus infection cell-based antiviral screen. inhibition, % at 10 µM. 200,000 compounds, 0.37% hits. AID 1251, 2008;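 active = inhibition from about 30%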;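 note: bluetongue infection of BSR cells; cell survival read as ATP light after 72 h; 0% = infected wells without compound and 100% = uninfected wells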
Mtb growth: M. tuberculosis H37Rv growth inhibitors, H37Rv strain (AID 1626); M. tuberculosis H37Rv growth inhibition; higher % means a stronger effect; 220,000 compounds, 0.95% hits; inhibition, % at 10 µM; hits with a dose series show IC50 in µM;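 active = confirmed in a dose series; inconclusive = inhibition above 80% but not taken into the dose series; inactive = below 80% or under 30% at every dose of the series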;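 note: bacteria incubated seven days before Alamar blue readout; 0% = bacteria only wells and 100% = bacteria with antibiotic wells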
Mtb betalactam: beta-lactam sensitization of Mtb H37Rv, H37Rv; M. tuberculosis H37Rv growth with meropenem, percent inhibition; hits of this screen are not shown here; inhibition, % at 25 µM; 330,000 compounds, 0.27% hits; AID 434955, 2010;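 active = about 74% or more and at least 40 points above the plate without the antibiotic, then above 30% in a dose series; inconclusive = first-round hits that could not be retested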;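 note: growth measured after seven days incubation then overnight dye step; 0% = bacteria only wells and 100% = bacteria with antibiotic; twin plates without the antibiotic show which effects depend on it; some results filed as inactive read as strong as hits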
YopH PTP inh: YopH tyrosine phosphatase inhibitors, primary screen, biochemical, fluorescence Ex485/Em525. inhibition, %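 (about 10 µM by stock and volumes)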. 140,000 compounds, 0.16% hits;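 active = inhibition of 50% or more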;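 note: controls were vehicle for no effect and minimum signal wells for full effect; inactives centre near -20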
Arbovirus anti repeat: second read-out of Arbovirus anti, no call of its own (marks repeat the call); inhibition, %; measured here: 10K subset replicate screen; many hits read low in the repeat;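 first of two repeat runs on a subset; 0% = infected and 100% = uninfected wells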
Numbers without * were called inactive; i = inactive; ? = inconclusive; nt = not tested or not shown.

SMILES	RecA splice inh	Arbovirus anti	Mtb growth	Mtb betalactam	YopH PTP inh	others
O=C(Nc1ccc(NC(=O)c2cccs2)cc1)c1ccc(Br)o1	-1.9	-11	-18%	-13	0
COCCNC(=O)c1ccc(CN2CCC(Cc3ccccc3)CC2)cc1	0.8	nt	nt	5	nt
COc1ccc(C(=O)NCCc2nnc3ccc(SCC(=O)Nc4cc(C)on4)nn23)cc1	0.6	4	14%	-5	nt
O=C(ONC1=NCCCCC1)c1ccc(Cl)cc1	1.3	5	-7%	-2	-5
O=C(Nc1nc(-c2cccs2)cs1)c1cccc(S(=O)(=O)N2CCCCC2)c1	nt	5	26%	6	-149
Cc1ccc(C)c(N2CCN(CCCNC(=O)Cn3cccc3C(=O)c3ccccc3)CC2)c1	0.0	-26	79%	-1	nt
OCCC#Cc1ccc(CN2CCN(Cc3ccccc3)C(CCO)C2)cc1 (configuration not stated)	3.5	1	5%	6	nt
Cc1ccc2[nH]c3c(=O)n(CCc4cnc[nH]4)cnc3c2c1	0.2	7	-6%	-3	20
NNC(=O)c1ccc(CN2C(=O)c3cccc4cccc2c34)cc1	-20	-9	-1%	-1	nt
CCN(CC)c1nc(N2CCOCC2)c(C#N)c2c1CN(C)CC2	0.5	-4	2%	-12	-47
COc1cc(/C=C(/NC(=O)c2ccccc2)C(=O)N2CCN(C)CC2)c([N+](=O)[O-])cc1OC	-3.8	12	20%	-3	0
O=C(CCC(=O)NC1CCN(Cc2ccccc2)CC1)NCc1ccco1	-0.7	2	0%	13	-12
COc1ccc2[nH]cc(S(=O)(=O)c3ccc(F)cc3)c(=O)c2c1	-1.3	3	-3%	0	-26
CN(CCC#N)C(=S)NC(=O)c1ccc(S(=O)(=O)N2CCOCC2)cc1	-1.0	14	7%	-9	nt
CC(=O)c1cccc(S(=O)(=O)N2CCCC(c3nc(-c4ccc(C)o4)no3)C2)c1 (configuration not stated)	2.7	5	-9%	?	-28
CCCSc1ccc(-c2nn(-c3ccccc3)cc2/C=C(/C#N)C(=O)NCCCOC)cc1	-33	-4	-7%	3	-41
Cc1c(C(=O)N2CCN(Cc3ccc4c(c3)OCO4)CC2)cccc1[N+](=O)[O-]	-0.5	-2	2%	9	-24
Cc1ccc(O)c(NC(=O)CCC2CCCCC2)c1	-0.9	8	-4%	14	-10	Arbovirus anti repeat=0
O=C(O)CSc1cn(Cc2ccccc2)c2ccccc12	0.8	nt	nt	9	nt
O=c1c(C(c2ccc(O)cc2)c2c(O)nc3n(c2=O)CCCS3)c(O)nc2n1CCCS2	-2.3	9	-4%	4	-31
O=C(Nc1cccc(O)c1)C(Cc1ccccc1)N1C(=O)c2cccc3cccc(c23)C1=O (configuration not stated)	-0.9	-3	3%	4	-6
COCC(=O)N1CCC(Oc2ccc(C(=O)N3CCCCCC3)cc2)CC1	-2.2	nt	nt	0	nt
COC(=O)c1sccc1NC(=O)COc1ccc(Cl)cc1Cl	-2.0	3	-3%	?	-29
CCC(c1nnnn1CC1CCCO1)N(CCN1CCOCC1)Cc1cc2cc(C)ccc2[nH]c1=O (configuration not stated)	nt	7	0%	nt	-34
N#Cc1cc2c(nc1SCC(=O)NCc1ccc3c(c1)OCO3)CCCCC2	2.3	-13	3%	3	-8
CC[C@@]1(O)C(=O)OCc2c1cc1n(c2=O)Cc2cc3c(CN(C)C)c(O)ccc3nc2-1	i	nt	8%	0	nt
O=C(c1cc(COc2c(F)cccc2F)on1)N1CCCCCC1	-1.2	nt	nt	?	nt
C[C@]12CC(=CO)C(=O)C[C@@H]1CC[C@@H]1[C@@H]2CC[C@@]2(C)[C@H]1CC[C@]2(C)O	nt	18	7%	nt	nt
O=C(/C=C/c1cccc(Cl)c1)OCc1cn2cc(Cl)ccc2n1	-1.3	5	-1%	22	nt
COc1ccc(/C=C/C(=O)O)cc1S(=O)(=O)NCc1ccco1	2.1	nt	-12%	-4	nt
CCC(C)(C)NC(=O)/C=C/c1cccs1	-2.1	3	6%	-2	-9
Cc1cccc(-n2c(-c3csc(C)c3)n[nH]c2=S)c1	2.4	8	-5%	-8	-9
CNS(=O)(=O)c1cnccc1N1CCN(c2cccc(Cl)c2)CC1	2.0	6	3%	-2	-26
CC(=O)C1=NOC2C(=O)N(c3ccc(Cl)cc3)C(=O)C12 (configuration not stated)	-1.8	nt	nt	3	nt
O=c1oc2ccccc2cc1-c1nc2c(s1)CCCC2	-46	1	nt	nt	-7
O=C(CN1C(=O)NC2(CCCC2)C1=O)Nc1ccc(F)c([N+](=O)[O-])c1	-2.6	nt	nt	11	nt
Cc1nnsc1Sc1ccccc1	-2.2	-1	0%	-8	nt
CC1CCc2cccc3c2N1c1cc(C#N)c(C#N)cc1O3 (configuration not stated)	-1.4	-8	9%	-11	-21
COc1cc(C(=O)NCC(c2ccc(F)cc2)N2CCOCC2)ccc1OCc1ccccc1Cl (configuration not stated)	9.1	nt	nt	7	nt
COc1ccc(-c2cc(C(=O)N3CCCCCC3)no2)cc1OC	0.4	nt	nt	2	nt

An excerpt from further up:
SMILES	RecA splice inh	Arbovirus anti	Mtb growth	Mtb betalactam	YopH PTP inh	others
O=C(Nc1cccc(O)c1)C(Cc1ccccc1)N1C(=O)c2cccc3cccc(c23)C1=O (configuration not stated)	-0.9	-3	3%	4	-6
COCC(=O)N1CCC(Oc2ccc(C(=O)N3CCCCCC3)cc2)CC1	-2.2	nt	nt	0	nt

The list continues.
SMILES	RecA splice inh	Arbovirus anti	Mtb growth	Mtb betalactam	YopH PTP inh	others
CCn1ncc(Br)c1C(=O)Nc1ccc(-c2ccno2)cc1	0.1	nt	nt	4	nt
COc1ccc(OC)c(CCNC(=O)c2nn(C)c3c2CS(=O)(=O)c2ccccc2-3)c1	-3.3	nt	nt	4	nt
CCOc1ccc(C(=O)NCC(=O)OCC(=O)c2ccc3c(c2)-c2ccccc2C3)cc1	4.3	-2	-4%	2	-8
Cc1[nH]c2ccc(S(N)(=O)=O)cc2c1C	-2.7	0	-7%	2	-5
COC(=O)c1ccccc1NC(=O)CSc1ncn[nH]1	0.5	nt	-6%	-4	nt
C/C(=C\C(=O)c1ccc(Cl)cc1)NCc1ccc2c(c1)OCO2	-3.1	-1	-5%	20	1
c1ccc(-c2nnc(SCC3CCCO3)nc2-c2ccccc2)cc1 (configuration not stated)	11	nt	15%	2	nt
O=C(NCC1CC1)c1cc(-c2ccccc2)nn1CC1CC(c2cccnc2)=NO1 (configuration not stated)	-1.6	nt	-5%	-11	nt
Cc1cc(C(=O)Nc2ccc(S(=O)(=O)N3CCOCC3)cc2)ccc1[N+](=O)[O-]	1.6	nt	nt	1	nt
O=C(NCCCN1CCOCC1)C1Nc2ccc(OC(F)(F)F)cc2C2C=CCC12 (configuration not stated)	0.7	nt	-13%	-7	nt
COc1cc(/C=N/NC(=O)c2ccc3c(c2)OCCO3)cc(Cl)c1O	-5.4	nt	nt	?	nt
COc1ccc(Cc2nnc(NC(=O)Nc3ccc(C)cc3)s2)cc1OC	-1.9	nt	nt	0	nt
CN(C)/C=C/C(=O)c1ccc(Oc2ccccc2)cc1	6.2	-1	9%	-4	nt
COc1ccc(/C=N/NC(=O)c2ccc(=O)[nH]n2)cc1OC	-6.9	4	-9%	1	-27
COc1ccc(NC(=O)COC(=O)c2ccc([N+](=O)[O-])o2)cc1Cl	0.0	13	-6%	61	nt
Cc1cccc(C)c1OCC(=O)N(Cc1ccc(Cl)cc1)C1CCS(=O)(=O)C1 (configuration not stated)	2.2	nt	nt	0	nt
CCOC(=O)C1(C)NC(c2cccc(C)c2)C2C(=O)N(c3ccccc3)C(=O)C21 (configuration not stated)	-4.1	nt	nt	-5	nt
O=C(Nc1cccc(C(F)(F)F)c1)C1CCCN(S(=O)(=O)c2cnc[nH]2)C1 (configuration not stated)	0.5	11	6%	8	-44
Cc1ccc(C(=O)NCCN2CCOCC2)cc1	-0.7	-8	-18%	6	-16
CCCCC(=O)Nc1ccc(C(N)=O)cc1	0.8	5	-1%	-12	5
O=c1oc2c(CN3CCN(CCO)CC3)c(O)ccc2cc1-c1ccccn1	i	nt	4%	6	nt
O=C1CC(=O)N(c2cccc(F)c2)C(=O)N1	-1.9	nt	nt	-1	nt
C=CCn1c(SCc2c(C(=O)OC)sc(N)c2C(=O)OC)nnc1-c1ccc(Br)cc1	15	4	15%	42	-3
Cc1cc(C)nc(NC2=NCCN2C(=S)Nc2c(C)cccc2C)n1	2.5	13	0%	3	nt
CC1CCCCN1C(=O)Cn1c(=O)oc2ccccc21 (configuration not stated)	0.7	-1	-6%	-3	-43
COc1ccc(Br)cc1CNC(=O)C1CCN(C(=O)N(C)C)CC1	8.1	-1	1%	-2	nt
Cc1cc(-c2n[nH]c(=S)n2/N=C/c2cccc(O)c2)n[nH]1	-1.1	nt	-10%	-4	nt
CC(=O)NS(=O)(=O)c1ccc(NC(=O)c2ccc(Br)o2)cc1	-2.3	9	-13%	-3	-18
Cc1cc(C)n(S(=O)(=O)c2ccc(Cl)c(Cl)c2Cl)n1	6.5	-2	1%	-8	-6	Arbovirus anti repeat=10
Cc1ccc(/C=C2\SC(=S)N(C3CCS(=O)(=O)C3)C2=O)o1 (configuration not stated)	-0.1	-12	-3%	8	nt
CCCCCCCn1c(C)nnc1-c1cnn(C)c1N	-4.0	3	-2%	-9	nt
O=C(O)CC(NC(=O)C12CC3CC(CC(C3)C1)C2)c1ccc2c(c1)OCO2 (configuration not stated)	-2.2	0	4%	-2	nt
C/C(=N\NC(=O)C1CC1)c1ccc(C)cc1C	0.4	nt	nt	-1	nt
O=C1Nc2ccc(Br)cc2C1=C1CCCCC1	-0.4	nt	nt	2	nt
Cc1cc(C)cc(-n2c(C)cc(/C=N\NC(=O)COc3cccc4cccnc34)c2C)c1	4.1	16	5%	5	-23
CCCCc1ccc(NC(=O)CSC2=C(C#N)C(c3ccco3)C3=C(CCCC3=O)N2)cc1 (configuration not stated)	17	-18	nt	96	-49
OCC1(Cc2cccc(Cl)c2)CCCN(Cc2cnn(-c3ccccc3)c2)C1 (configuration not stated)	0.9	-37	10%	9	nt
O=C(OCc1ccc([N+](=O)[O-])cc1)c1cc(=O)c2ccccc2o1	-1.4	nt	nt	0	nt
CCc1nnc(NS(=O)(=O)c2ccc(NCc3cc(Cl)ccc3O)cc2)s1	7.4	nt	nt	-2	nt
COc1nc(N/N=C/c2ccc(-c3ccccc3[N+](=O)[O-])o2)nc(N2CCOCC2)n1	61*	-14	1%	8	-21
CN1CC(C(=O)c2ccc(F)cc2)C(c2ccc(F)cc2)C1 (configuration not stated)	0.9	nt	nt	0	nt
Cc1ccc(CNC(=O)c2ccc(N3CCC4(CC3)CC(c3cccc(Br)c3)=NO4)c([N+](=O)[O-])c2)cc1	-2.5	nt	nt	-2	nt
COc1ccc(CCNC(=O)c2ccc(Cl)cc2)cc1OC	-2.4	-4	-6%	-16	nt
N/C(Cc1ccc([N+](=O)[O-])cc1)=N\OC(=O)c1ccccc1F	-1.1	0	0%	-11	nt
COc1cc(NC(=O)CN2CCN(Cc3ccc4c(c3)OCO4)CC2)cc(OC)c1	-2.5	-17	nt	-11	15
CCOc1ccccc1NC(=O)c1ccc(S(=O)(=O)N(C)C)cc1	-0.6	-2	-2%	-2	-18
CCn1c2ccccc2c2cc(CN3CCN(Cc4cc(OC)ccc4O)CC3)ccc21	5.4	9	?	99	nt
COC(=O)c1cc2ccccc2oc1=O	4.5	-1	1%	-5	14
O=C(Nc1ccccn1)c1onc2c1CCCC2	-2.3	-10	1%	1	-11
CC(=O)c1cccc(NC(=O)Nc2csc3c2CCCC3)c1	-1.0	3	7%	3	nt
Cc1cc2c(SCC(=O)NC3CCCC3)ncnc2s1	0.2	nt	nt	-5	nt
Cc1ccc(N(CC(=O)NC2CCCC2)C(=O)c2ccc(C)s2)cc1	0.3	10	6%	4	nt
CC(=O)c1cccc(NC(=O)C2(c3ccccc3)CC2(Cl)Cl)c1 (configuration not stated)	1.9	-14	2%	-10	nt
Cc1nc(NCc2ccco2)c(C#N)c2c1COC(C)(C)C2	-1.7	1	-6%	-4	-28

Arranged by heavy-atom count (lowest first): some entries from above
SMILES	RecA splice inh	Arbovirus anti	Mtb growth	Mtb betalactam	YopH PTP inh	others
Cc1ccc(C(=O)NCCN2CCOCC2)cc1	-0.7	-8	-18%	6	-16
CC1CCCCN1C(=O)Cn1c(=O)oc2ccccc21 (configuration not stated)	0.7	-1	-6%	-3	-43
CCN(CC)c1nc(N2CCOCC2)c(C#N)c2c1CN(C)CC2	0.5	-4	2%	-12	-47
O=C(CCC(=O)NC1CCN(Cc2ccccc2)CC1)NCc1ccco1	-0.7	2	0%	13	-12
Cc1ccc(CNC(=O)c2ccc(N3CCC4(CC3)CC(c3cccc(Br)c3)=NO4)c([N+](=O)[O-])c2)cc1	-2.5	nt	nt	-2	nt

The list is partial; rates above refer to the full screens.
